# Screening data deposited in PubChem by ICCB-Longwood Screening Facility, Harvard Medical School.
# Sa helicase inh: blocks Staphylococcus aureus DNA helicase; inhibition, %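 (tested at about 80 µM)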; 120,000 compounds, 0.05% hits; purified S. aureus helicase, fluorescence unwinding assay; about half of the hits fall short of the stated cut; AID 485395;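 active = both duplicates at 50% or more, or one of them with a favoured structure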;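 note: 0% = mean of negative control wells and 100% = mean of positive control wells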
# MgrA DNA FP: modulators of Staphylococcus aureus MgrA DNA binding | fluorescence polarization | inhibition, %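 (about 10 µg/mL by stock and volumes)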 | 84,000 compounds, 0.13% hits | AID 602314;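 active = above 50% in either of two replicates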;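 note: 0% = protein plus DNA without compound and 100% = DNA alone without protein; higher means less MgrA bound to DNA so lower polarization; one replicate is shown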
# An asterisk follows results filed as active; . = no result given; & = joins results of further samples. A portion of the library; count on the stated rates, not on these rows.
SMILES,Sa helicase inh,MgrA DNA FP
N#CC1=C(N)SC(N)=C(C#N)C1c1ccc(O)cc1,-53,22
CC1CCN(C(=O)CCNS(=O)(=O)c2cccc3nsnc23)CC1,13,-0.7
O=C1CCCc2cc(S(=O)(=O)N3CCCN(Cc4ccccc4Cl)C3)ccc2N1,7,.
CC1Cc2ccccc2N1C(=O)COC(=O)c1ccccn1 (stereo not drawn),2,.
S=C(NCc1ccco1)Nc1ccc(Oc2ccc(Cl)cc2)cc1,.,2.4
CCOc1ccc(-n2c(C)nc3cc(C(=O)NCCN4CCOCC4)ccc32)cc1,7,.
COc1cc(C(=O)OCCCN2CCCN(CCCOC(=O)c3cc(OC)c(OC)c(OC)c3)CC2)cc(OC)c1OC,.,-0.8
Cc1ccc(CN2C(=O)N/C(=C\c3cn(CC(=O)N4CCOCC4)c4ccccc34)C2=O)cc1,0,2.8
CCOC(=O)C1=C(C)Nc2ccccc2N=C1NC(=O)c1ccccc1C,6,.
CC(C)(C)c1nc(Sc2ccc(C(F)(F)F)cn2)n[nH]1,16,.
CC1Cn2cc(C(=O)NCc3ccccc3)c(=O)c3c(Cl)ccc(c32)O1 (stereo not drawn),1,0.8
Cn1c(C(=O)OC(C(=O)NCc2ccccc2)c2ccccc2)cc2sccc21 (stereo not drawn),10,-0.4
O=C(OCc1ccccc1)C1=NNC2C(=O)N(c3ccccc3)C(=O)C12 (stereo not drawn),14,0.3
CNS(=O)(=O)c1c(I)ccc2ccccc12,.,-0.2
O=C(Nc1ccncc1)OCCc1ccccn1,-9,2.2
CC(=O)N1CCc2cc(S(=O)(=O)Nc3cc(C)ccc3C)ccc21,9,0.1
COc1cccc(CN(C)C(=O)CNC(N)=O)c1OC,2,.
CC(=O)NC1=NN(C(C)=O)C(c2ccccc2)S1 (stereo not drawn),15,-2.4
COC(=O)C(C#N)C(c1cccnc1)c1c(C)[nH][nH]c1=O (stereo not drawn),6,-29
CC(C)(C)C(=O)Nc1nc2c(s1)CN(Cc1ccccc1)CC2,14,.
COc1ccc(NC(=O)C2Cc3ccccc3C(=O)O2)cc1 (stereo not drawn),-15,.
CCn1c2ccccc2c2cc(N3C(=O)C=CC3=O)ccc21,.,-7.2
Cn1cc(I)c(C(=O)O)n1,9,7.2
CCC12C=CCN3CCC4(c5ccc(OC)cc5NC4C(O)(C(=O)OC)C1OC(C)=O)C32 (stereo not drawn),5,-0.2
O=S(=O)(c1ccc(NCCSCc2ccco2)nc1)N1CCCC1,4,.

# (further entries)
SMILES,Sa helicase inh,MgrA DNA FP
C/C(=N\N1CCN(C)CC1)C1=C(O)c2ccccc2C1=O,5,3.1
COc1ccc(-c2cc(C(F)(F)F)n3nc(C(=O)NCc4ccco4)cc3n2)cc1OC,.,0.8
CCCN(C(=O)Cc1c(C(=O)O)n(CC)c2ccccc12)c1cccc(Cl)c1,9,1.6
COc1cccc2cc(C(=O)Nc3ccc(N4CCNCC4)cc3)c(=O)oc12,2,-1.8
O=C(NC1CCN(C(=O)c2ccco2)CC1)C1CCC1,.,-0.1
COC(=O)c1sccc1NC(=O)CSCCc1ccncc1,5,.
CCCCNC(=O)c1ccc(CS(=O)c2ccccc2C)o1 (stereo not drawn),-7,.
O=C(c1ccccc1)c1c[nH]c2ccccc12,-1,.
CC(NC(=O)NC12CC3CC(CC(C3)C1)C2)C(=O)O (stereo not drawn),6,.
COc1ccc(CN(Cc2ccco2)C(=O)COc2ccccc2)cc1,-25,.
O=c1c2ccccc2nc(SCc2ccc(Cl)cc2)n1Cc1cccs1,1,1.4
CCC(c1nnc(SCC(=O)N(CC)c2ccccc2)o1)N(C)C (stereo not drawn),-2,.
CN(C)c1nc(C(F)(F)F)cs1,3,.
Cc1ccc(NC(=O)CSCC(=O)N2CCN(c3ncccn3)CC2)c(C)c1,4,.
CC(C)(C)C(=O)/C=c1\s/c(=C\c2ccco2)c(=O)n1CC(=O)Nc1ccc(S(=O)(=O)N2CCOCC2)cc1,-7,.
O=C(O)c1ccc(N2N=C(/C=C/c3ccccc3)CC2c2ccccc2)cc1 (stereo not drawn),.,-1.1
O=C(NCCc1ccccc1)C1c2ccccc2C(=O)N1C1CC1 (stereo not drawn),7,.
Cc1noc2ncnc(NC(C)(C)CO)c12,-17,.
O=C1CNC(=O)c2ccccc2N1,8,.
CCOC(=O)C1=C(C)OC(N)=C(C(=O)OCC)C1c1ccncc1 (stereo not drawn),1,1.9
CCOC(=O)N1CCN(C(=O)c2ccco2)CC1,-3,0.6
CC1CN=C(SCc2ccc(Cl)cc2)N1 (stereo not drawn),.,0.5
CCCCCCn1c(=O)[nH]c2nc3cc(N)c(C)cc3nc2c1=O,-93,.
O=S(=O)(c1ccc2c(c1)OCCO2)N1CCN(C(=S)Nc2cccc(Cl)c2)CC1,18,.
CCCN1CCN(C(=O)C2CCS(=O)(=O)C2)CC1 (stereo not drawn),17,-1.6

# More entries
SMILES,Sa helicase inh,MgrA DNA FP
CCN(CC)S(=O)(=O)c1ccc(C(=O)Nc2nccs2)cc1,11&-2,.
CC1(C)Cc2c(sc3nc(NCCCO)[nH]c(=O)c23)CO1,4,3.5
O=c1cc(C(F)(F)F)[nH]c2ccc(Br)cc12,.,-1.7
O=C(CN1C(=O)C2CC=CCC2C1=O)Nc1ccc(S(=O)(=O)NC2=NCCCCC2)cc1 (stereo not drawn),-4,.
CCOc1ccc(N(CC(=O)NC2CCCCCC2)S(=O)(=O)c2c(C)[nH]c(=O)[nH]c2=O)cc1,39,.
CSC(=Nc1cccc(C(F)(F)F)c1)SC,-9,-0.4
Cc1cccc(CSCC(=O)O)c1,-11,.
COC(=O)C1=C(C)NC(S)=C(C#N)C1c1cccnc1 (stereo not drawn),13,3.4
COc1ccc(NC(=O)CN2C(=O)C(C)Oc3ccccc32)cc1 (stereo not drawn),-1,0.5
O=C(c1cnc2sc(N3CCCCC3)nn2c1=O)N1CCCC1,10,.
CCCCN1CCc2c1nc1ccc(Br)cc1c2N,29,1.5
CCOC(=O)c1oc2ccccc2c1CSc1nnc2n(Cc3ccc(C)cc3)c(=O)c3ccccc3n12,16,.
CC(NC(=O)c1ccc(Cl)cc1Cl)C(=O)NC1CCCCC1 (stereo not drawn),.,1.0
CC1CC(C)CN(CC(=O)Nc2ccnn2C(C)C)C1 (stereo not drawn),6,.
Cc1ccc(-n2c(SCC(=O)N3CCCCC3)nc3c([nH]c4ccccc43)c2=O)cc1,15,0.2
O=C(CN1CCC(Cc2ccccc2)CC1)Nc1ccc2c(c1)OCO2,18,.
C[C@]1(O)NC([S-])=C(C#N)C(c2ccc(Cl)cc2)C1[n+]1ccccc1 (stereo partly drawn),7,-1.4
C=CCNC(=O)CCN1C(=O)COc2ccccc21,5,1.9
Cn1cc(C(=O)c2ccccc2)cc1-c1nc2ccccc2n1C,3,-5.7
Cc1c(C(=O)Nc2nc3ccccc3s2)oc2c1C(O)CC(C)(C)C2 (stereo not drawn),9,2.2
O=C(O)c1ccccc1NCN1C(=O)c2ccccc2C1=O,-2,3.5
NC(=O)c1sccc1NS(=O)(=O)c1ccc(Cl)c(Cl)c1,.,2.0
FC(F)(F)c1cc(-c2ccccc2)nc2c(-c3ccccc3)cnn12,9,1.9
CC(C)NC(=O)c1ccc(CS(=O)(=O)c2c(Cl)cccc2Cl)o1,2,0.8
CCC(O)(c1ccc(OC)cc1)C(CN1CCCC1)c1ccccc1 (stereo not drawn),25,.

# Continuation.
SMILES,Sa helicase inh,MgrA DNA FP
CCCCC(C(=O)N/N=C/c1ccc(OCC)c(OC)c1)C(=O)N/N=C/c1ccc(OCC)c(OC)c1,.,-0.2
C=CCC1NCCc2c(Br)cccc21 (stereo not drawn),5,-2.2
N#CCC(=O)NCCc1ccccc1,1,-0.3
COc1ccccc1N1CCN(C(C)C(=O)Nc2ccccc2-c2ccccc2)CC1 (stereo not drawn),-7,.
Cc1ccc2cc(C)c(C)cc2c1,.,-1.2
N#CCn1c(CSc2nc3cc(Cl)ccc3n2Cc2ccccc2)nc2ccccc2c1=O,-11,.
Cc1nnc(SC2CCN(S(=O)(=O)c3ccc(F)cc3)CC2)s1,3,.
CSc1cccc(NC(=O)CN2C(=O)CCc3ccccc32)c1,-9,.
CCCCCOc1ccc(/C=C/C(=O)N(CCO)CCO)cc1,-9,.
C/C(=C\C(=O)C(F)(F)F)NCc1ccc(S(N)(=O)=O)cc1,4,.
O=C(NCCc1ccccc1)c1ccc2cn[nH]c2c1,-2,.
O=C(/C=C/C(=O)Nc1ccc(F)c(Cl)c1)Nc1ccc(F)c(Cl)c1,.,3.0
CC(C(=O)NC1CCCCC1)N1C(=O)C2C3C=CC(C3)C2C1=O (stereo not drawn),-13,1.1
CSC1=C(C#N)C(O)(c2cccs2)N=C(C(F)(F)F)N1 (stereo not drawn),.,-0.6
CCC1(C)NC(=O)N(NC(=O)c2ccc(S(=O)(=O)N3CCCC3)cc2)C1=O (stereo not drawn),19,.
O=c1nc(N2CCOCC2)nc(Nc2ccc3ccccc3c2)[nH]1,2,-0.2
COC(=O)C(NC(=O)NC1CCCCC1)C(C)C (stereo not drawn),4,1.8
N#CCc1ccc(NC(=O)CCC(=O)O)cc1,.,-2.6
CCN(CCC#N)c1ccc(CNCCCn2cnc3ccccc32)c(C)c1,6,.
COCc1c(C(=O)NCc2nnc3ccccn23)oc2ccccc12,23,.
CC1(NC(=S)NCCO)CCS(=O)(=O)C1 (stereo not drawn),11,.
O=C(/C=C/c1ccccc1)OCC(=O)N1CCc2ccccc21,-7,-0.7
Clc1ccc2nc(N3CCCNCC3)sc2c1,.,-0.9
COc1ccc(S(=O)(=O)N2CCCC(c3nc4ccccc4c(=O)[nH]3)C2)cc1 (stereo not drawn),-14,.
Cc1ccc(CCN2CC(C(=O)O)CC2=O)cc1 (stereo not drawn),0,.

# Following part:
SMILES,Sa helicase inh,MgrA DNA FP
CC1CCN(C(=O)c2cccc(Nc3nc4ccccc4n4nnnc34)c2)CC1,12,.
O=C1SCC(c2ccccc2)S1 (stereo not drawn),10,0.8
S=C(NCc1ccc2[nH]c3c(c2c1)CCCC3)Nc1ccccc1,3,-0.9
COC(=O)c1c(C)oc2ccc(N(C(C)=O)S(=O)(=O)c3ccc4ccccc4c3)cc12,-13,3.0
COC(=O)c1cc(S(=O)(=O)NCCCc2ccco2)c[nH]1,-2,.
O=C(COC(=O)c1ccc2[nH]c3c(c2c1)CCCC3)NCc1ccco1,-6,.
O=C(O)CC1(CC(=O)N2CCN(C(c3ccccc3)c3ccccc3)CC2)CCCC1,.,1.8
N/C(CSc1ccc(Cl)cc1)=N\S(=O)(=O)c1ccc(Cl)cc1,.,-1.4
COc1ccccc1/C=C/C=c1\sc2nc(-c3cc(OC)c(OC)c(OC)c3)nn2c1=O,10,0.0
COc1cc(C)c(S(=O)(=O)N2CCN=C2c2ccccc2)cc1C,11,.
CN=C(C)/C(C(=O)OC)=C(/O)c1snnc1C,.,3.6
C/C(=N\N=C(N)N)c1cccs1,17,.
CC(C)c1ccc(NC(=O)CN2CCN(c3ccc(C(F)(F)F)cn3)CC2)cc1,.,-2.2
COC(=O)c1cc(NC(=O)c2ccco2)ccc1N1CCOCC1,.,-0.9
CCCCN1Cc2cc(C(=O)c3cc(OC)ccc3O)cnc2NC1=O,-7,.
O=c1[nH]n(-c2ccccc2)c(=O)c2ccccc12,3,.
c1ccc(-c2cc3c(N4CCc5ccccc54)ncnc3s2)cc1,.,3.2
O=C(O)c1cccc(S(=O)(=O)NOCc2ccccc2)c1,-4,.
COCc1nc2c([nH]1)C(c1ccccc1COc1ccc(Cl)cc1)C(C#N)=C(N)O2 (stereo not drawn),4,-1.2
CCN=c1cc(N)n(CC)c2sc(C(=O)OCC)c(N)c12,.,0.7
CNC(=O)CN(C#N)c1nc(C)cc(C)n1,9,2.7
CCN(CC)C(=O)COc1c(-c2ccco2)oc2ccccc2c1=O,3,-2.0
O=C(O)C1CCC(N2C(=O)C3C4C=CC(C4)C3C2=O)CC1 (stereo not drawn),-2,0.6
Cc1cc(C(=O)CSc2nnc(C3CC3)n2C2CC2)c(C)s1,23,.
CC(C)Nc1ncnc2c1cnn2-c1ccc(Cl)cc1,17,.

# Some of the entries so far, with bars between the fields.
canonical_smiles | Sa helicase inh | MgrA DNA FP
O=C1SCC(c2ccccc2)S1 (stereo not drawn) | 10 | 0.8
S=C(NCc1ccc2[nH]c3c(c2c1)CCCC3)Nc1ccccc1 | 3 | -0.9
COC(=O)c1c(C)oc2ccc(N(C(C)=O)S(=O)(=O)c3ccc4ccccc4c3)cc12 | -13 | 3.0
COC(=O)c1cc(S(=O)(=O)NCCCc2ccco2)c[nH]1 | -2 | .
O=C(COC(=O)c1ccc2[nH]c3c(c2c1)CCCC3)NCc1ccco1 | -6 | .
O=C(O)CC1(CC(=O)N2CCN(C(c3ccccc3)c3ccccc3)CC2)CCCC1 | . | 1.8
N/C(CSc1ccc(Cl)cc1)=N\S(=O)(=O)c1ccc(Cl)cc1 | . | -1.4
COc1ccccc1/C=C/C=c1\sc2nc(-c3cc(OC)c(OC)c(OC)c3)nn2c1=O | 10 | 0.0
COc1cc(C)c(S(=O)(=O)N2CCN=C2c2ccccc2)cc1C | 11 | .
CN=C(C)/C(C(=O)OC)=C(/O)c1snnc1C | . | 3.6
C/C(=N\N=C(N)N)c1cccs1 | 17 | .
CC(C)c1ccc(NC(=O)CN2CCN(c3ccc(C(F)(F)F)cn3)CC2)cc1 | . | -2.2
COC(=O)c1cc(NC(=O)c2ccco2)ccc1N1CCOCC1 | . | -0.9
CCCCN1Cc2cc(C(=O)c3cc(OC)ccc3O)cnc2NC1=O | -7 | .
O=c1[nH]n(-c2ccccc2)c(=O)c2ccccc12 | 3 | .
c1ccc(-c2cc3c(N4CCc5ccccc54)ncnc3s2)cc1 | . | 3.2
O=C(O)c1cccc(S(=O)(=O)NOCc2ccccc2)c1 | -4 | .
